Source: PubChem BioAssay (National Center for Advancing Translational Sciences (NCATS))
hNpr1 antagonist = blocks ANP-stimulated signaling of human Npr1 receptor; AID 1347048; Potency, µM (highest dose often 46.3 µM), inactives show at the highest dose activity change, negative = inhibition, usual class: inhibitors; HEK293 hNpr1 GloSensor cGMP, ANP-stimulated luminescence; P16066; actives 1.6% (n = 76,000); active = well fitted inhibition curve with a large enough effect; inconclusive = small, poorly fitted or top-dose-only effect; inactive = no such curve, though single readings can be large or run the other way;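 note: nearly all actives have a fitted effect of over 60% in size; nearly all hits also lower the signal before the agonist is added; a reference antagonist and vehicle were the controls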
Target sequence (P16066 whole entry, looked up): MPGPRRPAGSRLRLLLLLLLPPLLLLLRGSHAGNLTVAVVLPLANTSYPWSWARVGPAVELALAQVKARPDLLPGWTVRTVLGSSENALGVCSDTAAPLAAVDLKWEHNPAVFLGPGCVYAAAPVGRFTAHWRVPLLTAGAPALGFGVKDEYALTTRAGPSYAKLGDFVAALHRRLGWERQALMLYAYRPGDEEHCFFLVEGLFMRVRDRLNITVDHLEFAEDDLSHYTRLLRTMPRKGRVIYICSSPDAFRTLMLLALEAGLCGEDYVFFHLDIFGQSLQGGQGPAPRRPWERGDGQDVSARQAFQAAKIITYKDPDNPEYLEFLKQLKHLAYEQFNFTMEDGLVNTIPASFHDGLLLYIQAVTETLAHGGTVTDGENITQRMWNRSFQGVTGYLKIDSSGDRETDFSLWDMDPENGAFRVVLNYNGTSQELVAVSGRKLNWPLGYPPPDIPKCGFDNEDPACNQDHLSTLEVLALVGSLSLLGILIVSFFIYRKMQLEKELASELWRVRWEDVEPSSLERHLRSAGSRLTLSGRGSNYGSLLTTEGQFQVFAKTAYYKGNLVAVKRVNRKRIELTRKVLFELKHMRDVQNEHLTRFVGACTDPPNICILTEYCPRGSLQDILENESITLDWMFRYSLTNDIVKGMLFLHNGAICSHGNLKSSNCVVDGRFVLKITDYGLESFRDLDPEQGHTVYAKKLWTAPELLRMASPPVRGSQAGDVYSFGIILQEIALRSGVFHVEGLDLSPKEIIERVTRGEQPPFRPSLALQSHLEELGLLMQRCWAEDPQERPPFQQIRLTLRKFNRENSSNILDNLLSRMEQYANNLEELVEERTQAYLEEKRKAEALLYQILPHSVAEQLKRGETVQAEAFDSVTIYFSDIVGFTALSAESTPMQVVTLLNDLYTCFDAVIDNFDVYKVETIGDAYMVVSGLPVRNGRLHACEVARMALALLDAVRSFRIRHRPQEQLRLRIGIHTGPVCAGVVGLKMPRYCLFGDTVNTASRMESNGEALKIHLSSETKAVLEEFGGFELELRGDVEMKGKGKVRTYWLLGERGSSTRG
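Compound pre-incubated 30 min at room temperature on GloSensor-loaded HEK293 cells stably carrying hNpr1 and the pGS-40F cGMP biosensor. Stimulation uses hNppA at 0.1 nM final; luminescence is taken at baseline and 20 min post-agonist.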
* hit, by the source's call; ? = inconclusive; [ ] = dose if it differs, or a comment. % is set by controls: 0 for no effect and ±100 for the full control effect; potency is the fitted concentration of half-maximal effect. These rows are one share of the data, so the mix of outcomes need not match the whole.

Start of the data: the first two records, ahead of the listing:
nr	SMILES	hNpr1 antagonist
1	COCCN1CCC2(CCC1=O)CN(c1ccc(C#N)cn1)CCN2C (stereo unspecified)	-1%
2	Cc1ccc(O[C@H]2COCC[C@H]2NC(=O)CCc2nc3ccccc3[nH]2)cn1	6%

Results, from the start:
nr	SMILES	hNpr1 antagonist
1	COCCN1CCC2(CCC1=O)CN(c1ccc(C#N)cn1)CCN2C (stereo unspecified)	-1%
2	Cc1ccc(O[C@H]2COCC[C@H]2NC(=O)CCc2nc3ccccc3[nH]2)cn1	6%
3	Cc1cc(F)ccc1-c1[nH]nc2ncc(-c3cccnc3)nc12	-20%[70.6 µM]
4	CC(=O)N1CCc2nn(CC(=O)Nc3cc(F)cc(F)c3)c(=O)cc2C1	-1%
5	O=C(Cc1cccs1)N1CCC(Nc2cccnc2)C1 (stereo unspecified)	5%
6	O=C(NCCc1noc(C2CC2)n1)c1n[nH]c2ccccc12	0%
7	Cn1ccnc1CN1CCC2(CC1)COCCN2C(=O)OCc1ccccc1	-28%[70.6 µM]
8	COCCN(C)C(=O)C1(C)CN(Cc2ccccc2)Cc2ccc(NCC(C)C)nc21 (stereo unspecified)	1%[70.6 µM]
9	Cc1cc(C(=O)N2CCC(F)(c3nc(-c4ccncc4)no3)CC2)n[nH]1	-21%
10	O=C(NCc1ccc(Cl)cc1)c1cnn2ncccc12	-10%[70.6 µM]
11	CCc1nc(-c2c3n(c(=O)n(CC(=O)NCc4cccc(OC)c4)c2=O)CCCC3)no1	-17%
12	O=C(Cn1nc2n(c1=O)CCCCC2)Nc1ccccc1C(F)(F)F	1%
13	O=C(NC1CCc2nnc(C3CC3)n2CC1)C1CC=CCC1 (stereo unspecified)	4%
14	O=C(NCCOc1ccccc1)c1cnc2n1CCN(Cc1ccncc1Cl)CC2	-11%[70.6 µM]
15	COCCCN1CC2(CCN(C(=O)c3nn(C)c4ccccc34)CC2)CC1=O	7%
16	CO[C@H]1C(=O)N(C(C)C)[C@H]1C1CCN(C(=O)c2cccc(C#N)c2)CC1	4%
17	COc1ccc(-c2nnc([C@H]3CCN(Cc4ccccc4Cl)C3)o2)cc1	0%[70.6 µM]
18	COCCn1c2c(c(=O)n1-c1ccccc1)CCN(C(=O)c1ccccc1)C2	2%[70.6 µM]
19	CCC1=C(C(=O)OC)C(c2cccc(OC)c2)N2C(CC(=O)NC3CC3)=CSC2=N1 (stereo unspecified)	-14%
20	CC1(C(=O)N2C[C@@H](Oc3ccccc3)C[C@H]2C(=O)N2CCOCC2)CCCCC1	0%
21	CN(CC(=O)N[C@H]1CCOC[C@H]1C1CCOCC1)Cc1ccncc1	1%
22	Cn1nnc(-c2cccc(NC(=O)CC[C@H]3NC(=O)c4ccccc4NC3=O)c2)n1	-19%
23	Cc1cnc(C2CC2)n1CCN	6%
24	COC[C@@H]1CCCN1Cc1cc2ccc(C)cc2nc1-c1ccc(OC)cc1	-9%
25	CCCCNC(=O)C1CCCN(C2CCN(Cc3ccncc3)CC2)C1 (stereo unspecified)	0%
26	CC1CCN(C(=O)CN2C(=O)NC3(CCC(C)CC3)C2=O)CC1 (stereo unspecified)	-5%
27	CCCNC(=O)CC1CCCN(c2cn[nH]c(=O)c2)C1 (stereo unspecified)	10%
28	COCCNC(=O)c1nc(-c2ccsc2)c2ccccn12	0%[70.6 µM]
29	O=C(CCCc1ccccc1)N1CCC2(CC1)CN(C1CCC1)CC2CO (stereo unspecified)	-28%
30	CCc1noc(-c2cccn3c(CNC(=O)c4ccc(Cl)cc4)nnc23)n1	5%

3 entries already listed, arranged by the number in hNpr1 antagonist, low to high.
nr	SMILES	hNpr1 antagonist
22	Cn1nnc(-c2cccc(NC(=O)CC[C@H]3NC(=O)c4ccccc4NC3=O)c2)n1	-19%
25	CCCCNC(=O)C1CCCN(C2CCN(Cc3ccncc3)CC2)C1 (stereo unspecified)	0%
27	CCCNC(=O)CC1CCCN(c2cn[nH]c(=O)c2)C1 (stereo unspecified)	10%

(list continues)
nr	SMILES	hNpr1 antagonist
31	O=C(NCCc1cscn1)c1cccc(S(=O)(=O)NC[C@@H]2CCCO2)c1	9%
32	Cn1cnnc1CC1CCNCC1	-4%
33	Cc1ccccc1C(=O)N1CCCN(c2nc3ncccc3o2)CC1	6%
34	CCNC(=O)N(C1CC1)C1CCOC2(CCN(C(=O)c3nccc4ccccc34)CC2)C1 (stereo unspecified)	-1%
35	Cc1nc2ccccc2n1CCNC(=O)C1CC(=O)N(c2n[nH]c3ccccc23)C1 (stereo unspecified)	1%
36	O=C(c1cccc2nccnc12)N1CCC2(CC1)CC(N1CCCC1)CCO2 (stereo unspecified)	2%
37	Cc1ccc(-c2noc(-c3nnn4c3COC(c3ccc(C)cc3C)C4)n2)cc1 (stereo unspecified)	4%
38	CC(C)c1noc(-c2cccn3c(CNC(=O)C4CCC4)nnc23)n1	-1%
39	COCCn1ncc(N2CCC(C(=O)N3CCC(N(C)Cc4cccc(Cl)c4)CC3)C2)cc1=O (stereo unspecified)	-28%
40	O=C(N1CCN(S(=O)(=O)c2cccs2)CC1)N1CC2CC(C1)[C@H]1CCCC(=O)N1C2 (stereo partly specified)	-1%
41	COc1ccc(S(=O)(=O)N2CCC(n3cnnc3C3CC3)CC2)cc1Cl	-15%
42	Clc1cccnc1-c1cc(NCc2ccccn2)nc2[nH]ccc12	-2%
43	Clc1cc(NCc2ccccn2)n2nccc2n1	?
44	COc1ccc(-n2c(CCN)n[nH]c2=O)cc1OC	1%
45	COc1ccc(-c2[nH]ncc2CN2CCCC(C(=O)NCc3ccccc3)CCNC(=O)CC2)cc1 (stereo unspecified)	5%
46	CCOC(=O)c1ccc(NC(=O)c2c(OC)cc(=O)n3c2CCCC3)cc1	6%
47	CCc1noc(-c2cccn3c(CNC(=O)C(C)c4ccccc4)nnc23)n1 (stereo unspecified)	-12%
48	O=C(CCc1cc(Cl)no1)N1CCCC(Cc2nncn2CC2CC2)C1 (stereo unspecified)	2%
49	Cc1ccc(CN2C(=O)C3(CCOCC3)CC2c2nnnn2C(C)(C)C)cc1 (stereo unspecified)	0%
50	COc1ccccc1[C@@H]1CN(C(=O)CCc2scnc2C)C[C@H]1C(=O)O	5%
51	CCOCCCNC(=O)N1CCC(OC2CCN(S(C)(=O)=O)CC2)CC1	5%
52	COCCC1(NC(=O)c2cc(C)n(C)n2)CCN(C2CCOCC2)CC1	-5%
53	CN1C[C@H](NS(C)(=O)=O)CCC[C@@H](C(=O)N(C)Cc2cccnc2)CC1=O	-1%[70.6 µM]
54	Cc1ccc(CN2CCc3oc(C)c(C(=O)N4CCSCC4)c3C2)cc1	-17%
55	COc1ncccc1-c1cccc(COc2ccc3c(cnn3CC[S+](C)(=O)[O-])c2)c1	35µM*
56	COc1cc(OC)c(NC(=O)Cn2ccn3nc(-c4ccc(F)cc4)c(CO)c3c2=O)cc1Cl	4%
57	Cc1nn(C)c(C)c1C(=O)N[C@@H]1CN(S(C)(=O)=O)C[C@H]1CN(C)C	9%
58	COCCN1CCC(N2CCN(S(=O)(=O)Cc3ccccc3Cl)CC2)C1=O (stereo unspecified)	-8%
59	CC[C@H]1CN(C(=O)C(C)(C)C)CC[C@H]1CC(=O)NCCSC	1%[70.6 µM]
60	C=CCn1cc(CN2CCC(Oc3ccc4ccccc4c3)(C(=O)O)CC2)cn1	-3%
61	CCNC(=O)NC[C@H]1O[C@H](Cc2cc(-c3ccc(F)cc3)on2)CC[C@@H]1O	-3%[70.6 µM]
62	C=CCNC(=O)N1CC[C@H]2CC(=O)N(Cc3cccnc3)CC[C@H]2C1	-1%[70.6 µM]
63	CCCc1cc(C(=O)N2CCc3c(nc(-c4cccnc4)[nH]c3=O)C2)n[nH]1	1%
64	CCC1Oc2ccc(NC(=O)COC)cc2CN(Cc2ccc(Cl)cc2)C1=O (stereo unspecified)	-16%
65	CNc1ccc(-c2noc([C@@H]3CCCN3Cc3cccnc3)n2)cn1	1%[70.6 µM]
66	CC(C)(C)CC(=O)N1CC[C@H]2CC(=O)N(Cc3cccnc3)CC[C@H]2C1	3%[70.6 µM]
67	c1ccc(-c2noc(-c3cncnc3NC3CCCCC3)n2)cc1	1%
68	OCC1(CCc2ccccc2)CCCNC1 (stereo unspecified)	-2%
69	O=C(c1ccc2nc[nH]c2c1)N1CCCN(c2cc(-c3ccc(Cl)cc3)[nH]n2)CC1	-2%
70	COC(=O)c1cccc(NC(=S)N[C@H]2CO[C@H]3[C@@H]2OC[C@@H]3n2nnnc2-c2ccc3c(c2)OCO3)c1	0%
71	Cc1ccccc1C(=O)N(C)CC1CCOCC1	1%
72	COCc1cc(C[C@@H]2C[C@H](NCC3CC3)C2(C)C)no1	4%[70.6 µM]
73	Cc1onc(C(=O)N2CCC(C)(c3noc(-c4ccncc4)n3)CC2)c1Cn1cc(Cl)cn1	2%
74	C=CCNC(=O)CCc1c(C)nn(-c2ccccc2C)c1Oc1cccc(F)c1	-12%
75	COC(=O)CNC(=O)C1CN(Cc2ccccc2)C(=O)N1 (stereo unspecified)	-13%[70.6 µM]
76	CCn1cc(-c2ccc(C)cc2)cc1C(=O)N1CCC(C)CC1	-10%
77	Cn1nc(-c2cccs2)cc1-c1nc(C2CCOC2)no1 (stereo unspecified)	-8%
78	COc1ccc(C(=O)N2CC[C@H]3COC(=O)N3c3ccccc3C2)cc1	4%[70.6 µM]
79	COCCC1(NC(=O)C2CCC2)CCN(CC2CC2)CC1	1%
80	CCC(C)NC(=O)C1COC2(CCCCC2)N1C(=O)c1cccc(F)c1 (stereo unspecified)	-10%

(cont.)
nr	SMILES	hNpr1 antagonist
81	Cc1ncsc1CCC(=O)N1CC[C@@H]2[C@@H](CCC(=O)N2CCN)C1	3%
82	COc1ccc(C)nc1-c1cccc(OC)c1C(=O)N(C(C)C)C(C)C	5%
83	COc1cc(C(=O)N2C[C@@H](C)[C@@](C)(O)C2)ccn1	0%
84	CC(C)N1C(=O)[C@@H]2[C@@H](CCN2C(=O)CSCC(=O)O)N(Cc2cccc(F)c2)C1=O	-2%[70.6 µM]
85	COc1ccccc1Oc1ncccc1CNC(=O)c1ccccc1SC	-3%
86	Nc1cccc(C(=O)NCC2CCN(Cc3cc(F)cc(F)c3)C2)c1 (stereo unspecified)	1%
87	COCCNC(=O)C1CCN(C(=O)c2ncn3c2COC(c2ccc(F)cc2)C3)CC1 (stereo unspecified)	3%
88	CC(C)c1noc(-c2cccn3c(CNC(=O)c4c(F)cccc4F)nnc23)n1	4%
89	c1ccc(-c2noc(-c3ccccc3OC3CCNC3)n2)cc1 (stereo unspecified)	-13%
90	COc1ccc(CCNC(=O)CCCN2C(=O)COc3ccc(C(C)=O)cc32)cc1OC	3%
91	Cc1cc(C(=O)N[C@H]2[C@H](O)[C@H](O)C[C@@H]2c2ccc(N3CCOCC3)nc2)nn1C	8%[70.6 µM]
92	O=C(N[C@@H]1CCN(C(=O)c2nnc3n2CCCC3)C[C@H]1O)c1cnccn1	9%
93	Cc1cc(C(=O)N[C@@H]2CN(Cc3ccccc3)C[C@H]2CN(C)C)n[nH]1	5%
94	O=C(NCCc1ccccc1)Nc1cccc(-c2ccc(N3CCCCC3)nn2)c1	8.9µM*
95	CC(C)C1=NOC2(CCN(Cc3cccc4ccccc34)CC2)C1	1%[70.6 µM]
96	CCn1ncc(N2CCCC(CC(=O)Nc3ccc(Cl)cc3)C2)cc1=O (stereo unspecified)	?
97	Nc1nc(C2CC(N)C2)cc(N2CCN(CC(=O)N3CCCCC3)CC2)n1 (stereo unspecified)	8%
98	O=C(c1cccs1)N1CCC2(CC1)SCC(=O)N2c1ccc(Cl)cc1	-3%
99	CC(C)CCNC(=O)c1ccc(-c2nnc3ccc(NC(=O)C4CCC4)cn23)cc1	4%
100	COc1ccc(NC(=O)c2nc(C(O)c3ccccc3F)oc2C)cn1 (stereo unspecified)	-14%[70.6 µM]
101	CCc1ccc(NC(=O)Cn2c(N3CCC(C)CC3)nc(C)cc2=O)cc1	?
102	CNC(=O)Cn1nc(C2CCN(C(=O)c3cccs3)CC2)c2c1CCOC2	0%
103	O=C(NCC1(O)CCCCC1)C1CCN(c2nc(-c3ccccc3)nc3c2CCC3)CC1	0%
104	CC(=O)N1CCN(c2nc3c(s2)CC(C(=O)NCc2cc(F)cc(F)c2)CC3)CC1 (stereo unspecified)	-3%
105	NC1CCCCN(C(=O)CCn2cc(Cl)cn2)C1 (stereo unspecified)	5%
106	O=C1CC(c2ccccc2)N(C(=O)CNS(=O)(=O)c2cccc3cccnc23)CCCCCCN1 (stereo unspecified)	-3%
107	CCC1Oc2ccc(NC(=O)COC)cc2CN(Cc2ccc(F)cc2)C1=O (stereo unspecified)	0%
108	Cn1cccc1CN1CCCN(S(C)(=O)=O)C(c2ccccc2)CC(=O)NCC1 (stereo unspecified)	-3%
109	COc1ccc(CN2C[C@H]3CN(Cc4cccnc4)CCN3C2=O)cc1	1%[70.6 µM]
110	O=C(Nc1ccc([C@@H](O)[C@H]2COCC(=O)N2Cc2ccccc2F)cc1)c1cccs1	1%
111	O=C1CC[C@]2(C(=O)N3CCCCC3)CCCC[C@H]2N1CCc1ccccc1	1%
112	CCc1cc(=O)n(CC(=O)Nc2ccccc2OC)c(-c2ccccc2)n1	-9%
113	COc1cccc(CN2CCNc3cc(-c4ccccc4)ncc3C2)c1	-1%[70.6 µM]
114	CN(C)c1ccc(C(=O)NC2CCN(c3cc(-c4ccccc4)[nH]n3)C2)cc1 (stereo unspecified)	-10%
115	CN(C)C[C@@H]1CN(c2ncccn2)C[C@H]1N	-1%
116	Cc1ccc(C)c(NC(=O)Cn2c(=O)c(-c3noc(C)n3)c3n(c2=O)CCCC3)c1	-3%
117	Cc1ccsc1C(=O)NC1CCN(c2cnn(Cc3ccccc3)c(=O)c2)CC1	-8%
